# PINK1 expr mod = A Quantitative High throughput Screen to Identify Chemical Modulators of PINK1 Expression | PINK1 immunofluorescence, high-content cytometry, 24 h | Potency, µM (titrated, usually from 76.6 µM), inactives show top-dose activation (PINK1 increase), hits mostly activators | 410,000 tested, 0.2% active | AID 624263, 2012; active = well fitted activation curve with a large enough effect; inconclusive = small, poorly fitted or top-dose-only effect; inactive = flat fitted curve, though single readings scatter; cell line not stated here;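 also: potency is read from the fitted curve at half-maximal effect; % of control where 0% means no effect; nearly all actives have a fitted effect of over 65% in size; a mitochondrial uncoupler was the plate control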
#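 PINK1 protein level read as immunofluorescence by microplate cytometer in a fixed, stained stable cell line after 24 h exposure to five compound concentrations, with CCCP as control.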
# Six1-Eya2 inh = qHTS Assay for Inhibitors of the Six1/Eya2 Interaction; AID 651725, 2012; 360,000 tested, 0.56% active; activity change, % (concentration not given with the values); AlphaScreen GST-Six1/His-Eya2 binding, biochemical; hits give low values; control for the full effect not named in the record; Homeobox protein SIX1 (Homo sapiens) + Protein phosphatase EYA2 (Homo sapiens), …; in the data active = activity change below about -65%; inconclusive = about -30% to -65%; inactive = above about -30%; also: % is scaled to controls: 0 for no effect and ±100 for the full control effect
# Target sequence (O00167 whole entry, looked up): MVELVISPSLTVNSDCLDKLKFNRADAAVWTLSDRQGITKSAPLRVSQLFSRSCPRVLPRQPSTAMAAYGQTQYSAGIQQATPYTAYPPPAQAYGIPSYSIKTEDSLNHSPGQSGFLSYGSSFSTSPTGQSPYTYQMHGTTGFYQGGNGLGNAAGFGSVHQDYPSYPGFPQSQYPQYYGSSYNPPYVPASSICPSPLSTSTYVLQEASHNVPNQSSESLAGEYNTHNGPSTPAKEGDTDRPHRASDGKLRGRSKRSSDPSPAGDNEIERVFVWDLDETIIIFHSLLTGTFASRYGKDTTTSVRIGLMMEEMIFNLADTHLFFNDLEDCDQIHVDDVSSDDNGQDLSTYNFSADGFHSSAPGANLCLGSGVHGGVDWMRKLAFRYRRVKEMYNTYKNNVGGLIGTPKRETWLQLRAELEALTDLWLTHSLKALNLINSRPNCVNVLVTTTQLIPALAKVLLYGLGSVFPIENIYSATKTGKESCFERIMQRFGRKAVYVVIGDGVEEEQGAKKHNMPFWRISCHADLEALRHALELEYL
# Target sequence (Q15475 whole entry, looked up): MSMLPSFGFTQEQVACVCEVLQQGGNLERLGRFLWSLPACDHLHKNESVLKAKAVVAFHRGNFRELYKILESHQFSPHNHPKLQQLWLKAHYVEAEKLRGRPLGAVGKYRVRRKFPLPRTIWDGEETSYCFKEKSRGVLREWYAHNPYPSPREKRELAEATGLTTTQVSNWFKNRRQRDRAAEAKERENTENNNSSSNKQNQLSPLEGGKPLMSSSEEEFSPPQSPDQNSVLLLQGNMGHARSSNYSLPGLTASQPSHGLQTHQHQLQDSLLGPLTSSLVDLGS
#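 AlphaScreen luminescence read after one hour at 37 °C in darkness. Pin-transferred compounds met GST-Six1 and His-Eya2 protein (5X stock 250 nM/500 nM) plus glutathione donor and Ni-chelate acceptor beads (5X, 50 ug/mL).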
# Sfp PPTase inh = qHTS Assay for Inhibitors of Bacillus subtilis Sfp phosphopantetheinyl transferase (PPTase); 4'-phosphopantetheinyl transferase ffp (Bacillus subtilis), Q9F4F7; Biochemical Sfp PPTase activity, qHTS; Potency, µM, for inactives: max response, negative = inhibition, actives largely listed as inhibitors; 310,000 tested, 3.5% active; active = well fitted inhibition curve with a large enough effect; inconclusive = small, poorly fitted or top-dose-only effect, or another doubt; inactive = no such curve, though single readings can be large or run the other way;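 also: the enzyme is Sfp with the accession as filed and its product quenches rhodamine fluorescence; potency is read from the fitted curve at half-maximal effect; 0% = enzyme reaction without inhibitor and -100% = no enzyme wells; top concentration of the series not given in the record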
#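 With Hepes-Na pH 7.6 buffer containing 10 mM MgCl2, Sfp (15 nM) modified BHQ-2-YbbR (12.5 uM) using rhodamine-CoA (5 uM). Two reads 30 minutes apart at 525/598 nm yielded each well's rate.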
# CtBP-E1A inh = qHTS Assay for Inhibitors of the CtBP/E1A Interaction; AlphaScreen GST-E1A/His-CtBP binding, 1536-well; hits give low values; control for the full effect not named in the record; 340,000 tested, 0.49% active; activity change, % (no concentration beside the values); in the data active means activity change below about -65%; inconclusive means about -30% to -65%; inactive means above about -30%; also: % is scaled to controls: 0 for no effect and ±100 for the full control effect; compound concentration not given in the record
#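 In 5 uL wells, 23 nL compound meets equimolar GST-E1A and His-CtBP (5X stock 125 nM each) for 2 h, 37 °C. Beads (5X, 50 ug/mL) then 1 h, 37 °C, dark.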
# TRPV1 potentiator = HTS Assay for Compounds that Act as Potentiators of the Vanilloid Receptor 1; 320,000 tested, 0.02% active; Transient receptor potential cation channel subfamily V member 1 (Homo sapiens), Q8NER1; TRPV1-expressing cells, Fluo-8 calcium influx, capsaicin EC20 potentiation; host cell line not named in the record; control for the full effect not named in the record; potentiation, % at 8.33 µM; active means potentiation above 80%; inconclusive means 30% to 80%; inactive means below 30%; also: 0% is about no effect
#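 TRPV1-expressing cells were cultured overnight at 35.5C and loaded with Fluo-8 calcium dye for 40 to 90 min at room temperature. After a 10 s baseline, compound was added and calcium influx was read kinetically for 3 min (ex 480/em 520 nm).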
# D2 ag = Beta-Arrestin HTS for Positive Allosteric Modulators of the Human D2 Dopamine Receptor: Agonists. activation, % (test concentration not listed). 360,000 tested, 0.084% active. DiscoveRx PathHunter D2 beta-arrestin, luminescence, 90 min; 100% = 57 uM dopamine signal. D(2) dopamine receptor (Homo sapiens), P14416. AID 624465, 2012; in the data active = activation above about 40%; inconclusive = about 15% to 40%; inactive = below about 15%; also: compound concentration not given in the record; the text of the record calls up to 30% inactive
#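 DiscoveRx PathHunter D2 beta-arrestin cells (2,100/well) attached overnight, then compound-stimulated 90 min at 37 C in HBSS/10 mM HEPES/0.1% Tween-20 buffer; beta-galactosidase complementation read by luminescence after 1 h at ambient temperature. Dopamine 57 uM final (EC100) as control.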
# D2 potentiator = Beta-Arrestin HTS for Positive Allosteric Modulators of the Human D2 Dopamine Receptor: Potentiators. potentiation, % (concentration not given with the values). AID 624464, 2012. 360,000 tested, 0.23% active. D(2) dopamine receptor (Homo sapiens), P14416. DiscoveRx D2 beta-arrestin cells, luminescence, 90 min; 100% = 57 uM dopamine signal; active = potentiation of 50% or more; inconclusive = 30% to 50%; inactive = 30% or less;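 also: compound concentration not given in the record; tested on top of an EC20 dose of dopamine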
#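 PathHunter D2 cells, attached overnight at 37 deg C, received compound in DMSO plus dopamine at EC20 (50 nM final) for 90 min at 37 deg C. Beta-arrestin recruitment was read as luminescence after 1 h with detection reagent at ambient temperature.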
# * marks the source's active call; other numbers are inactive results; ? = inconclusive; / = not tested or not shown; [ ] = dose if it differs, or a comment. Not a hit list; any-hit rate near 3.7%.
smiles	PINK1 expr mod	Six1-Eya2 inh	Sfp PPTase inh	CtBP-E1A inh	TRPV1 potentiator	D2 ag	D2 potentiator
CC(C)NC(=S)Nc1ccc2cn[nH]c2c1	7.2%	-10	-6%	0	0	-2.1	8
CCN(CC)CCN1C(=O)c2ccccc2NC1c1ccc(C)cc1 (stereo not given)	4.5%[38.3 µM]	0	12%	0	-12	-2.2	-13
CCCCN(Cc1cc2cc(C)ccc2[nH]c1=O)C(=O)c1ccccn1	0.7%	5	13%	/	-1	-2.7	-12
CCOC(=O)N1CCN(C(=O)c2cc3c(-c4cccc(OC)c4)nn(C)c3s2)CC1	8.3%	-15	-17%	-5	0	?	18
COc1cc(-n2c(=O)c3ccccc3n(Cc3cccc(F)c3)c2=O)cc(OC)c1OC	-1.6%	3	-21%	/	4	-11	-3
CC(C)(C)c1ccc(C(=O)NC(=O)CSc2n[nH]c(N)n2)cc1	1.1%	2	/	-21	14	-0.5	-4
CCOc1cccc(CN2CCN(CCCc3ccccc3)C(CCO)C2)c1O (stereo not given)	-0.1%	-4	-1%	-1	-9	-1.4	-3
Cc1nc2ccc(NC(=O)/C=C/C(=O)O)cc2nc1C	-1.4%	-2	-29%	-17	-6	2.1	-2
O=C(Nc1nc(=O)n(C(=O)c2cccc(C(F)(F)F)c2)s1)c1ccccc1	-1.0%	3	5%	6	4	1.3	1
O=S(=O)(NCc1ccccc1)c1cccc2cccnc12	1.0%	1	3%	-4	10	-0.8	5
C/C(CCc1ccco1)=N/NC(=O)CCC(=O)Nc1cccc(Cl)c1	-0.2%	2	15%	2	18	-1.3	-6
COC(=O)[C@H](Cc1ccccc1)NC(=O)Cn1cnc(C(=O)Nc2ccc(C)c(C)c2)n1	-0.7%	-3	/	2	/	0.8	/
Cc1ccc(C)c(NC(=S)N(Cc2ccc(Cl)cc2)Cc2ccc(C(=O)O)cc2)c1	-1.8%	-5	-30%	0	-1	0.4	-3
Cn1c(SCC(=O)Nc2ccccc2O)nnc1-c1ccco1	0.1%	-2	4%	11	11	2.6	20
C[C@@H]1CN([C@@H](C)CO)C(=O)c2cc(NC(=O)CCC(F)(F)F)ccc2O[C@H]1CN(C)Cc1ccc(Cl)c(Cl)c1	?	-7	/	5	/	1.7	/

# Record cards, from the list above. Order of values: PINK1 expr mod, Six1-Eya2 inh, Sfp PPTase inh, CtBP-E1A inh, TRPV1 potentiator, D2 ag, D2 potentiator
# Shown for `CCOC(=O)N1CCN(C(=O)c2cc3c(-c4cccc(OC)c4)nn(C)c3s2)CC1` : 8.3%, -15, -17%, -5, 0, ?, 18
# Shown for `CCOc1cccc(CN2CCN(CCCc3ccccc3)C(CCO)C2)c1O` (stereo not given) : -0.1%, -4, -1%, -1, -9, -1.4, -3

# Returning to the listing; the three compounds before the break are reprinted first.
smiles	PINK1 expr mod	Six1-Eya2 inh	Sfp PPTase inh	CtBP-E1A inh	TRPV1 potentiator	D2 ag	D2 potentiator
Cc1ccc(C)c(NC(=S)N(Cc2ccc(Cl)cc2)Cc2ccc(C(=O)O)cc2)c1	-1.8%	-5	-30%	0	-1	0.4	-3
Cn1c(SCC(=O)Nc2ccccc2O)nnc1-c1ccco1	0.1%	-2	4%	11	11	2.6	20
C[C@@H]1CN([C@@H](C)CO)C(=O)c2cc(NC(=O)CCC(F)(F)F)ccc2O[C@H]1CN(C)Cc1ccc(Cl)c(Cl)c1	?	-7	/	5	/	1.7	/
Cc1nc(NC(=O)c2cccs2)ccc1Br	-1.6%	7	22%	-10	1	-1.6	-5
O=[N+]([O-])c1cnn(-c2nc(-c3cccs3)cc(C(F)(F)F)n2)c1	5.5%	-2	23%	2	?	-4.1	-11
Cc1ccc(N2CC(C(=O)NC3CCSC3=O)CC2=O)cc1 (stereo not given)	1.4%[38.3 µM]	2	14%	1	9	-0.7	7
CCOc1ccccc1C(=O)NCC(=O)NCC1CCCCC1	12%	-2	11%	-1	?	-3.3	-1
CSc1ccccc1OCc1cc(C(=O)NCCCc2ccccc2)no1	-1.1%	0	20%	11	9	-3.7	-1
C=CCN1CC2(c3ccccc3)CN(CC=C)CC(c3ccccc3)(C1)C2=O	2.4%	-2	15%	2	-16	-0.5	-3
O=C(Nc1cc(Cl)ccc1Cl)Nn1cnnc1	-1.1%	0	2%	8	-21	-4.1	-30
CN1CCN(C(=O)CCNC(=O)Cn2cnc3ccccc3c2=O)CC1	0.3%	-3	22%	-14	6	-7.8	0
C=CCn1c(C)cc(C(=O)CN2NS(=O)(=O)c3ccccc3C2=O)c1C	6.9%	1	14%	/	0	-2.1	-3
CC(C)N(Cc1nc(-c2ccc(Cl)cc2)no1)C(=O)C12CC3CC(CC(C3)C1)C2	0.2%	4	18%	6	-2	0.2	-5
CCCCC(=O)N/N=C/c1ccc(Sc2cccc3cccnc23)o1	6.1%	-80*	35µM*	-88*	-8	-5.1	13
O=C(O)c1cccc2c1C(=O)c1ccccc1-2	-0.1%	9	19%	2	-17	-1.9	8
C=CCOC1COC2C(OCC=C)COC12 (stereo not given)	-0.4%	-1	/	-2	/	-2.9	-26
Cc1c(Cc2ccccc2)c(=O)oc2cc(OCc3ccc(C(=O)O)cc3)ccc12	-0.1%	-1	2%	-1	5	-2.7	-7
Cc1ccc(/C=N/NC(=O)CNC(=O)c2ccc(S(=O)(=O)N(C)C)cc2)o1	-0.3%	-2	2%	7	-6	-1.8	-2
CCCN1C(=O)C(O)(CC(=O)c2ccc3c(c2)OCCO3)c2ccccc21 (stereo not given)	-0.9%	11	-4%	2	9	-2.0	6
CC(=O)Nc1ccc(S(=O)(=O)N2CCc3cc4c(cc3C2)OCCCO4)cc1	6.5%	0	3%	/	5	6.0	3
Cc1nc(N)sc1N=Nc1ccccc1C(F)(F)F	-0.8%	-25	14%	0	5	-3.0	-1
CC1=CC(=O)Nc2cncnc2N1	-2.0%	8	/	5	/	-4.1	-1
Cc1[nH]c2ccccc2c1C1=NNC(=Nc2ccc(F)cc2)SC1	?	?	22µM*	?	-9	-0.9	0
COc1cccc(-c2nc(CS(=O)(=O)CC(=O)Nc3cccc(C)c3C)c(C)o2)c1	5.0%	-1	26%	2	16	-2.1	-4
COC(=O)Cc1ccc(N(Cc2ccccc2F)S(=O)(=O)c2ccc(Cl)cc2)cc1	3.0%	7	1%	21	4	2.6	-5
CC(NC(=O)C1CC=CCC1C(=O)O)C1CC2CCC1C2 (stereo not given)	0.8%	1	12%	7	?	-1.6	21
Cc1ccc(CNC(=O)CCCOc2cc(=O)n(C)c3ccccc23)o1	1.9%	-6	22µM*	-8	-19	-1.5	-9
Cc1nc(-c2ccccc2)nc2[nH]ccc(=O)c12	-1.7%	-2	11%	-8	-16	1.2	14
COc1ccccc1NC(=O)NCCc1ccccc1	-0.1%	1	8%	7	-14	-0.6	-21
O=C(CSc1nc(-c2ccc(F)cc2)cs1)NCC1CCCO1 (stereo not given)	1.2%	5	/	1	/	0.6	-5
COc1ccc(C)cc1NC(=O)C1CC1c1ccccc1 (stereo not given)	5.3%	14	/	-1	/	-2.9	-2
Cc1ccnc(NC(=O)CCC(=O)N(CC(=O)NCc2ccc(F)cc2)Cc2ccco2)c1	-0.6%	-4	6%	-8	11	-2.1	-14
CCOc1ccccc1-n1c(SCC(=O)N2CCOCC2)nc2ccccc2c1=O	-0.8%	-1	14%	-1	-10	0.3	1

# 3 compounds out of the list above, ordered by their value in D2 potentiator, low to high.
smiles	PINK1 expr mod	Six1-Eya2 inh	Sfp PPTase inh	CtBP-E1A inh	D2 ag	D2 potentiator
Cc1ccc(CNC(=O)CCCOc2cc(=O)n(C)c3ccccc23)o1	1.9%	-6	22µM*	-8	-1.5	-9
O=C(CSc1nc(-c2ccc(F)cc2)cs1)NCC1CCCO1 (stereo not given)	1.2%	5	/	1	0.6	-5
CC1=CC(=O)Nc2cncnc2N1	-2.0%	8	/	5	-4.1	-1

# Next structures follow:
smiles	PINK1 expr mod	Six1-Eya2 inh	Sfp PPTase inh	CtBP-E1A inh	TRPV1 potentiator	D2 ag	D2 potentiator
CCN(CC)c1c([N+](=O)[O-])c(=O)n(C)c2ccccc12	-1.5%	-13	4%	-19	-11	6.3	-12
CC(=O)c1ccc(-n2c(CCC(=O)O)ccc2-c2ccc(Br)cc2)cc1	-3.2%	-2	1%	10	19	3.0	5
Cc1ccc2c(c1)N(C(=O)CCC(=O)NCCCN(C)Cc1ccccc1)CCO2	-0.3%	0	13%	0	?	-4.2	-11
CC(C)(C)NS(=O)(=O)c1ccc(NC(=S)NC(=O)C2CC2)cc1	-0.5%	10	1%	3	-14	0.8	-4
CCOC(=O)c1ccccc1NC(=O)c1ccc(F)cc1	2.0%[38.3 µM]	28	16%	0	-1	-1.8	-2
CC1CCN(S(=O)(=O)c2cccc(-c3nnc(-c4cccnc4)o3)c2)CC1	0.6%	-28	17%	?	18	1.4	14
CCn1c(=NC(=O)CS(=O)(=O)c2ccccc2)sc2cccc(OC)c21	1.1%	-4	/	7	-2	2.1	-4
Cn1c(NCc2c[nH]c3ccccc23)nc2ccccc21	2.4%	-7	4%	-1	5	2.9	-16
Nc1ccccc1C(=O)N/N=C1\C2CN3CCN(C2)CC1(c1ccccc1)C3	1.7%	9	10%	6	-4	-4.5	-8
CCOc1ccc(C(=O)NCC(=O)Nc2ncccc2C)cc1OCC	-0.3%	-2	/	11	-10	0.2	-14
Cc1ccc(SCCN2C(=O)NC(C)(C)C2=O)cc1	0.9%	10	7%	6	-16	4.0	3
C/C(=N\Nc1cccc(C(F)(F)F)c1)c1ccc(O)cc1	11%	3	-5%	-7	1	4.5	2
COC(=O)NNC(=O)COc1ccc2ccccc2c1Br	-0.7%	-1	-15%	-9	0	-1.4	-5
CCOC(=O)c1c(SCC(=O)Nc2nc(C)cs2)nc(=O)[nH]c1C	0.0%	-15	3%	?	7	-3.4	-4

# Screening data as filed in PubChem BioAssay.
